HPGD block – blocks human HPGD enzyme activity; AID 894; P15428; Potency, µM, for the others: at the highest dose activity change, negative = inhibition, actives largely listed as inhibitors; purified HPGD, NADH fluorescence kinetic, PGE2 substrate; actives 4.3% (n = 150,000); active = well fitted inhibition curve with a large enough effect (not every such curve was filed as active); inconclusive = small, poorly fitted or top-dose-only effect, or another doubt; inactive = no such curve, though single readings can be large or run the other way;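 also: top concentration of the series not given in the record; plate controls included wells without enzyme; inactives centre near -10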
Target sequence (P15428 whole entry, looked up): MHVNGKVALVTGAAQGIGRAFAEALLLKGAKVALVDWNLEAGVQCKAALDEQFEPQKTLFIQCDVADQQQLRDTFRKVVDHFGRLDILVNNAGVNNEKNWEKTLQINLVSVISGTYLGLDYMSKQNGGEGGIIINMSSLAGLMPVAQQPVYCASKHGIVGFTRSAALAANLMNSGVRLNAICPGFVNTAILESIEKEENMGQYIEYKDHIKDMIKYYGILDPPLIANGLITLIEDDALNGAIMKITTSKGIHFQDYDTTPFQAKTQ
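NADH formation kinetics: reaction with 30 uM PGE2 and 1 mM NAD+ (final), 20 nM enzyme, Tris-HCl pH 8 with Tween 20, after 15 min compound preincubation at room temperature. Fluorescence change, last versus first of five reads.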
An asterisk follows results filed as active; & = joins results of further samples. % is scaled to controls: 0 for no effect and ±100 for the full control effect; potency is read from the fitted curve at half-maximal effect. This is a subset; count on the stated rates, not on these rows.

`CC(=O)Oc1ccc(/C=C/C(=O)CC2OC(Oc3cc(OC(C)=O)c4c(c3)O[C@@H](c3ccc(OC(C)=O)cc3)CC4=O)C(OC(C)=O)C(OC(C)=O)C2OC(C)=O)cc1` (stereo partly specified) gave HPGD block -7%.
Screening O=c1oc(-c2cccc(S(=O)(=O)N3CCOCC3)c2)nc2ccccc12 returned HPGD block -19%.
`O=S(=O)(NCCc1ccccc1F)c1cccc(S(=O)(=O)N2CCOCC2)c1` gave HPGD block -11%.
For CC(=O)c1cccc(NC(=O)CN2C(=O)C3C4C=CC(C4)C3C2=O)c1 (stereo unspecified) the results were HPGD block -13%.
CC(C)Nc1ncnc2c1cnn2-c1ccccc1 was read as HPGD block inconclusive.
`COc1cccc(/C=C2\N=C(SC)SC2=O)c1OC` gave HPGD block 25µM*.
Screening CCOc1ccc(C(=O)Nc2cccc(C(=O)O)c2C)cc1Cl returned HPGD block -17%.
For O=C1CC(c2ccco2)=Nc2ccccc2N1 the results were HPGD block -13%.
Screening CCOC(=O)c1ccccc1NS(=O)(=O)c1ccc(OC)cc1 returned HPGD block inconclusive.
CCOCCN1CCN(c2c(CC)c(C)nc3cc(-c4cc(OC)cc(OC)c4)nn23)CC1 was read as HPGD block inconclusive.
CCn1c(SCC(=O)N2CCN(c3ccccc3)CC2)nnc1-c1cc2cc(Cl)ccc2o1 was read as HPGD block -11%.
For CCCc1ccccc1OCCNC(C)=O the results were HPGD block -10%.
`CN1CCN(C(=S)Nc2ccc(Cl)cc2Cl)CC1` gave HPGD block -13%.
Screening CC1/C(=N/O)CC(c2ccco2)NC1c1ccco1 (stereo unspecified) returned HPGD block -2%.
`COC(=O)C1CCN(C(=O)COC(=O)[C@@H]2CC(O)CN2S(=O)(=O)c2ccc3c(c2)OCCO3)CC1` (stereo partly specified) gave HPGD block 1%.
For CC1=C(C)NC(=S)SC1 the results were HPGD block inconclusive.
`CC1=C(C#N)C(=O)N(C)C(C)(C)C1` gave HPGD block -5%.
For COc1cc(-c2nnc(SCC(=O)OC3CCCCC3)o2)cc(OC)c1OC the results were HPGD block -2%.
`O=C(Cc1cccs1)NNC(=O)c1ccc(F)cc1` gave HPGD block -3%.
`CO/N=C(/c1nonc1N)N1CCN(c2ccc([N+](=O)[O-])cc2)CC1` gave HPGD block -2%.

As a working copy, some entries already given:
`CC(=O)Oc1ccc(/C=C/C(=O)CC2OC(Oc3cc(OC(C)=O)c4c(c3)O[C@@H](c3ccc(OC(C)=O)cc3)CC4=O)C(OC(C)=O)C(OC(C)=O)C2OC(C)=O)cc1` (stereo partly specified) gave HPGD block -7%.
Screening O=c1oc(-c2cccc(S(=O)(=O)N3CCOCC3)c2)nc2ccccc12 returned HPGD block -19%.
`O=S(=O)(NCCc1ccccc1F)c1cccc(S(=O)(=O)N2CCOCC2)c1` gave HPGD block -11%.

(cont.)
`CSC1=NC2C(N1)N(C)C(=O)N2C` (stereo unspecified) gave HPGD block -20%.
`COc1ccc(C(=O)c2cc(C(C)=O)c(Nc3ccccc3)s2)cc1` gave HPGD block inconclusive.
For COc1ccc(N(CC(O)Cn2c(C)nc3ccccc32)S(=O)(=O)c2ccccc2)cc1 (stereo unspecified) the results were HPGD block 2%.
Cc1cc(NC(=O)CCC(=O)N(c2ccccc2)C(C(=O)NC2CCCC2)c2cccs2)no1 (stereo unspecified) was read as HPGD block -6%.
CCSc1nc2sc3c(c2c(=O)[nH]1)CCc1ccccc1-3 was read as HPGD block -9%.
For CNc1oc(-c2ccc(C)cc2)nc1P(=O)(c1ccccc1)c1ccccc1 the results were HPGD block -25%.
`CC(C)OC(=O)c1c(NC(=O)c2ccco2)sc2c1CCCCC2` gave HPGD block inconclusive.
For O=C(COc1ccc(Cl)cc1)OCC(=O)N1CCCCCC1 the results were HPGD block -4%.
Cc1cccc(NC(=O)CCn2nc(C)cc2C)c1 was read as HPGD block -15%.
O=[N+]([O-])c1ccc(N/N=C/c2ccccc2)c(F)c1 was read as HPGD block -3%.
`Cc1ccccc1OCC(=O)N/N=C/c1ccc([N+](=O)[O-])o1` gave HPGD block -10%.
For COc1ccccc1-n1c(SCC(=O)NC(C)(C)C)nnc1-c1ccco1 the results were HPGD block 16µM*.
O=C(O)CC1C(=O)NCCN1CCCc1ccccc1 (stereo unspecified) was read as HPGD block -3%.
Screening Cc1ccc(NS(=O)(=O)c2ccc(OCC(=O)Nc3cccc([N+](=O)[O-])c3)c(C)c2)cc1 returned HPGD block -4%.
For Cc1nc2nc[nH]c2cc1Br the results were HPGD block -18%.
Screening COCC(=O)N1CCC[C@@]2(CCN(Cc3ccccc3)C2)C1 returned HPGD block -5%.
Screening O=C(O)c1cc([N+](=O)[O-])ccc1Nc1ccccc1 returned HPGD block -24%.
`Cc1ccc2cc(C(c3nnnn3C3CCCC3)N3CCN(c4ccc(F)cc4)CC3)c(=O)[nH]c2c1` (stereo unspecified) gave HPGD block -25%.
Screening Cc1ccn2cc(-c3nonc3C)cc2c1 returned HPGD block -12%.
`COc1ccc2cc(C(c3nnnn3Cc3ccccc3)N3CCCCCC3)c(=O)[nH]c2c1` (stereo unspecified) gave HPGD block -8%.

Six entries out of the list, sorted by number of heavy atoms, lowest first:
Screening O=C(O)c1cc([N+](=O)[O-])ccc1Nc1ccccc1 returned HPGD block -24%.
CCSc1nc2sc3c(c2c(=O)[nH]1)CCc1ccccc1-3 was read as HPGD block -9%.
For O=C(COc1ccc(Cl)cc1)OCC(=O)N1CCCCCC1 the results were HPGD block -4%.
`COc1ccc(C(=O)c2cc(C(C)=O)c(Nc3ccccc3)s2)cc1` gave HPGD block inconclusive.
For COc1ccccc1-n1c(SCC(=O)NC(C)(C)C)nnc1-c1ccco1 the results were HPGD block 16µM*.
For COc1ccc(N(CC(O)Cn2c(C)nc3ccccc32)S(=O)(=O)c2ccccc2)cc1 (stereo unspecified) the results were HPGD block 2%.

In the list so far, these have a COOH group.
Screening CCOc1ccc(C(=O)Nc2cccc(C(=O)O)c2C)cc1Cl returned HPGD block -17%.
O=C(O)CC1C(=O)NCCN1CCCc1ccccc1 (stereo unspecified) was read as HPGD block -3%.
Screening O=C(O)c1cc([N+](=O)[O-])ccc1Nc1ccccc1 returned HPGD block -24%.

Next part:
Screening O=C(CSc1nn(-c2ccccc2)c(=S)s1)NC1CCS(=O)(=O)C1 (stereo unspecified) returned HPGD block -5%.
Screening CCN(C(=O)COC(=O)c1c(-c2ccccc2)noc1C)C1CCS(=O)(=O)C1 (stereo unspecified) returned HPGD block -9%.
CC(Sc1nc2ccccc2s1)C(=O)Nc1nnc(C(C)C)s1 (stereo unspecified) was read as HPGD block -19%.
Screening COc1ccc(CSc2ncn[nH]2)cc1[N+](=O)[O-] returned HPGD block -7%.
`Clc1ccc(Oc2nc(N3CCOCC3)nc(N3CCOCC3)n2)cc1` gave HPGD block -1%.
CN(C)C(=O)c1c(NC(=O)c2ccco2)sc2c1CCCCC2 was read as HPGD block -16%.
CCCCCCOC(=O)c1ccccc1NC(=O)/C=C/C(=O)O was read as HPGD block -13%.
For Oc1ccc2[nH]cnc2c1CN1CCCCC1 the results were HPGD block -13%.
Screening Cc1cc(NS(=O)(=O)c2ccc(NC(=O)c3cnc4scc(C)n4c3=O)cc2)nc(C)n1 returned HPGD block inconclusive.
`COC(=O)C(C(=O)OC)=C(/C=C/C=C/N(C)C)N(C)C` gave HPGD block -26%.
Screening CC(=O)N1c2ccc(Cl)cc2C2C=CCC2C1c1cccc2ccccc12 (stereo unspecified) returned HPGD block -18%.
CCCCn1c(SCC(=O)Nc2nnc(CC)s2)nc2c1c(=O)n(C)c(=O)n2C was read as HPGD block -3%.
Screening Cc1ccc(C(=O)NCCN2CCOCC2)cc1Cl returned HPGD block -16%.
`N#CCCSC(=S)[C@H]1CCCC1=N` gave HPGD block -8%.
COc1ccc(C)cc1NC(=O)CN1CCN(S(=O)(=O)c2ccc(Cl)cc2)CC1 was read as HPGD block -10%.
For CC1=C(C(=O)NC2CCC(C)CC2)C2(CCC(C)CC2)OC1=O (stereo unspecified) the results were HPGD block -6%.
For O=C(Cc1nnc(NC(=O)c2ccccc2)s1)N/N=C/c1ccco1 the results were HPGD block -3%.
For CCCCN(C(=O)CSc1nnc(Nc2ccc(C)c(C)c2)s1)c1c(N)n(Cc2ccccc2)c(=O)[nH]c1=O the results were HPGD block -12%.
`O=C(NCCCN1CCCC1)c1cccc(N2CCCC2=O)c1` gave HPGD block inconclusive.
Screening CSc1nc(N)c2ncn([C@H]3O[C@H](COP(=O)(O)OP(=O)(O)OP(=O)(O)O)[C@@H](O)[C@@H]3O)c2n1 returned HPGD block -1%.
For CCC/C(O)=C1\C(=O)CC(c2ccccc2)CC1=NC (stereo unspecified) the results were HPGD block inconclusive.
For Cc1cc(C)c2c(N)c(C(=O)c3ccccc3)oc2n1 the results were HPGD block -27%.
Screening Cc1ccc(OCC(=O)NNC(=O)CSc2ncc(C#N)c(N)n2)cc1 returned HPGD block -7%.
For COc1ccc(OC)c(NC(=S)N(CCc2c(C)[nH]c3ccc(C)cc23)Cc2cccs2)c1 the results were HPGD block -7%.
`CC1CCCCC1NC(=O)COC(=O)c1ccc2c(c1Cl)C(=O)c1ccccc1C2=O` (stereo unspecified) gave HPGD block 16µM*.
CCN(c1cccc(C)c1)S(=O)(=O)c1cccc(C(=O)O)c1 was read as HPGD block -1%&-11%.
O=C(Nc1ccccc1)Nc1nc(-c2ccc(Cl)cc2)cs1 was read as HPGD block -14%.
For CCCCNCCOCCOc1ccccc1-c1ccccc1 the results were HPGD block 1%.
C=CCNc1nnc(-c2ccncc2)s1 was read as HPGD block inconclusive.
CCCC(C(=O)NC1CCCC1)N(C(=O)Cn1nnc(-c2ccc(C)o2)n1)C1CCCC1 (stereo unspecified) was read as HPGD block inconclusive.
For CCc1ccc(OCC(=O)NC(NC(=S)Nc2ccccc2C)C(Cl)(Cl)Cl)cc1 (stereo unspecified) the results were HPGD block 0%.
Screening CCCc1cc(=O)[nH]c(SCC(=O)CSc2nc(CCC)cc(=O)[nH]2)n1 returned HPGD block -11%.
For CC(=O)Nc1ccc(SCC(=O)N(CCC#N)c2cc(C)cc(C)c2)cc1 the results were HPGD block 3%.
For COc1ccc(/C=N/NC(N)=S)cc1OC(=O)c1cccc2ccccc12 the results were HPGD block -15%.
For Cc1nn(C)c(C)c1NC(=O)CCSc1nc(-c2ccco2)cc(C(F)(F)F)n1 the results were HPGD block -16%.
Screening CS(=O)(=O)N(CC(=O)NCCSC1CCCCC1)c1cccc(F)c1 returned HPGD block 5%.
Cc1c(C(=O)N2CCN(Cc3ccccc3)CC2)sc2ncnc(N3CCOCC3)c12 was read as HPGD block -20%.
Screening Cc1cccc(N=Cc2[nH]c3ccc(Br)c(Cl)c3c2O)c1 returned HPGD block 14µM*.
O=C(CN1CCOc2ccccc21)NCc1cccs1 was read as HPGD block -11%.
`COc1cc(C(=O)N[C@H](C(=O)NC2CCCCCC2)C(C)C)cc(OC)c1OC` gave HPGD block -1%.
Screening CCN(CC)S(=O)(=O)c1ccc(N2CCOCC2)c(NS(=O)(=O)c2ccc(C)cc2)c1 returned HPGD block -22%.
For O=C(CCn1c(=O)oc2ccccc21)NCc1ccc2c(c1)OCO2 the results were HPGD block -12%.
`Cc1c2cnn(CC(=O)Nc3cccc(C(F)(F)F)c3)c(=O)c2c(C)n1Cc1ccccc1F` gave HPGD block 22%.
Screening CC(Cc1ccccc1)C(=O)NCc1ccncc1 (stereo unspecified) returned HPGD block -8%&-5%.
CC(NC(=O)CN1CCN(Cc2ccc(Cl)cc2)C1=O)c1ccc2c(c1)OCCO2 (stereo unspecified) was read as HPGD block -6%.
Screening COc1ccccc1N1CCN(CC(=O)Nc2cc(F)ccc2C)CC1 returned HPGD block -7%.
Cc1c2oc3c(C)ccc(C(=O)N[C@@H]4C(=O)N[C@@H](C(C)C)C(=O)N5CCC[C@@H]5C(=O)N(C)CC(=O)N(C)[C@@H](C(C)C)C(=O)O[C@H]4C)c3nc-2c(C(=O)N[C@@H]2C(=O)N[C@@H](C(C)C)C(=O)N3CCC[C@@H]3C(=O)N(C)CC(=O)N(C)[C@@H](C(C)C)C(=O)O[C@H]2C)c(N)c1=O was read as HPGD block inconclusive.
Cc1ccc(C(=O)NNC(=O)c2cccnc2SCc2cccc([N+](=O)[O-])c2)cc1 was read as HPGD block -15%.
`C/C(=N\NC(=O)c1[nH]c2c([N+](=O)[O-])cc(C)cc2c1-c1ccccc1)c1cccnc1` gave HPGD block -5%.
Screening CCc1ccc2c(c1)/C(=N/N(C)C(=S)NC)C(=O)N2 returned HPGD block -10%.
For Cc1c(C#N)c2ncnc(N)c2n1-c1ccccc1 the results were HPGD block -8%.
For O=C(/C=N/O)Nc1cccnc1 the results were HPGD block -13%.
`CN(C)c1cccc(NC(=O)C2(C)CC2(Cl)Cl)c1` (stereo unspecified) gave HPGD block -25%.
For Clc1c(-c2ccccc2)nnn1-c1ccccc1 the results were HPGD block -22%.
CC1(C(=O)NC(=S)N(CCC#N)c2ccccc2)CC1(Cl)Cl (stereo unspecified) was read as HPGD block -2%.
Screening CN(C)c1ccc(N/C=C/C(=O)c2ccc(F)cc2)cc1 returned HPGD block -7%.
`COc1ccc(CC2C(=O)OC(C)(C)OC2=O)cc1` gave HPGD block -8%.
Screening O=C(CCC(=O)c1cccs1)NCc1ccc(F)cc1 returned HPGD block -10%.
For CN1C(=O)c2ccccc2OC1(C)Cc1ccccc1 (stereo unspecified) the results were HPGD block -6%.
Screening Cc1cc(N)c2cc(NC(=O)Nc3ccc4nc(C)cc(N)c4c3)ccc2n1 returned HPGD block -8%.
`O=C(NN1CCN(Cc2ccccc2Cl)CC1)c1ccc(Cl)cc1` gave HPGD block -10%.

Three compounds picked at random from the list so far:
`C/C(=N\NC(=O)c1[nH]c2c([N+](=O)[O-])cc(C)cc2c1-c1ccccc1)c1cccnc1` gave HPGD block -5%.
Screening Cc1cc(N)c2cc(NC(=O)Nc3ccc4nc(C)cc(N)c4c3)ccc2n1 returned HPGD block -8%.
For Cc1c(C#N)c2ncnc(N)c2n1-c1ccccc1 the results were HPGD block -8%.

Bioassay records as filed in PubChem BioAssay.
